NPYLR7 ag: mosquito NPYLR7 agonism. HEK293T NPYLR7/Galpha15, GCaMP6s calcium fluorescence. activation, % at 10 µM. hit rate 0.15% among 270,000. AID 1259423; in the data active = activation above about 40%;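 note: 0% = vehicle and 100% = reference agonist at the receptor; some compounds past the cut are filed as inactive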
NPYLR7 ag max-min: second read-out of NPYLR7 ag, no call of its own (marks repeat the call); activation, %; measured here: Max-Min RFU normalised activation; some inactives read as strong as hits;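 span of the calcium signal over five minutes; 0% = vehicle and 100% = native peptide agonist; compound fluorescence can raise it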
An asterisk follows results filed as active; & = joins results of further samples.

Screens in order: NPYLR7 ag | NPYLR7 ag max-min
> Cc1cc(C)c(Cn2ccnc2CN(CCN2CCOCC2)C(=O)c2ccc(Cl)cc2)c(C)c1
  1 | 7
> C=C1COC(NC(=O)OC)(C(=O)OCC)C1 (stereo not drawn)
  1 | 0
> COc1cc2c(cc1CNc1cc(C3CCNCC3)ncn1)OCCO2
  7 | 11
> N#CCCN(Cc1ccco1)Cc1noc2c1CCCC2
  0 | -3
> CCc1cccc(NC(=O)CCC(=O)NCC2(C)CCCO2)c1 (stereo not drawn)
  -7 | -10
> Cc1nc2nc(C(F)(F)F)nn2c(C)c1CC(=O)O
  7 | 8
> COc1ccc(-n2c(CSc3ncccn3)nnc2SCC(=O)NO)cc1
  12 | 4
> CC(=O)N1CCCC1C(=O)Nc1nn(-c2ccccc2)cc1C (stereo not drawn)
  0 | -2
> Cc1cc(C(=O)Nc2ncn(Cc3ccc(C#N)cc3)n2)n[nH]1
  -2 | -3
> CCCn1c(C2CC(=O)N(c3ccc(C)c(C)c3)C2)nc2ccccc21 (stereo not drawn)
  1 | -3
> O=C(CCN(CCc1ccccc1)c1nc(-c2ccc(F)cc2)nc2ccccc12)Nc1ccccc1F
  9 | 18
> CCCCN(CC(=O)Nc1cc(C(C)(C)C)nn1-c1ccccc1)C(=O)Nc1ccccc1Br
  19 | 23
> O=C(Nc1ccc(Br)cc1F)c1c(O)c2ccccc2[nH]c1=O
  10 | 9
> CCN(Cc1ccncc1)C(=O)CC1C(=O)NCCN1Cc1cccs1 (stereo not drawn)
  4 | 0
> Cc1cc(Cl)cc(Br)c1OCCCCn1cncn1
  -1 | 18
> CCNC(=O)O[C@H]1C(=O)N(C)C2(CCN(C(=O)c3cc(C)oc3C)CC2)[C@@H]1C(=O)OCC
  10 | 12
> CCS(=O)(=O)Oc1ccc(Cl)cc1CN(CCN(C)C)C(=O)C1CCC1
  -3 | 0
> Fc1ccc(C2CC(c3ccccc3)=Nc3nc(C(F)(F)F)nn32)cc1F (stereo not drawn)
  2 | 12
> CC1CCN(C2=CC(=O)OC23CCCCC3)CC1
  8 | 6
> CCN(CC)CCN(C(=O)C1=COCCO1)c1nc2ccc(Br)cc2s1
  -4 | -9
> Cc1ccc(OC(C)C(=O)OCc2ccc(C#N)cc2)cc1 (stereo not drawn)
  2 | 1
> O=C1CN(CC2(O)CCCN(CCc3ccccc3)C2=O)CCN1C1CCCCC1 (stereo not drawn)
  -1 | -5
> COc1ccc(C=C2N=C(c3ccccc3Br)OC2=O)cc1Br
  0 | 1
> COC(=O)C1C2CCC(C2)C1NC(=O)c1ccc[nH]1 (stereo not drawn)
  -3 | -6
> C=CCn1cc(/C=N\N2C(=O)C3C4C=CC(C4)C3C2=O)c2ccccc21 (stereo not drawn)
  1 | -2
> Cc1ccc(-c2csc(NC(=O)c3ccco3)n2)cc1[N+](=O)[O-]
  -7 | 15
> Cc1ccc(NC(=O)c2c(NC(=O)Cc3ccccc3)sc3c2CCCC3)cc1
  -7 | -4
> OCc1nc2ccccc2n1CCOc1ccc2ccccc2c1
  0 | -2
> CCOC1CC(N=C2NS(=O)(=O)c3ccccc32)C12CCC2 (stereo not drawn)
  0 | -1
> COc1ccc([C@H]2[C@@H](C#N)[C@H](C#N)N3CCCN23)cc1
  1 | -2

Screens in order: NPYLR7 ag | NPYLR7 ag max-min
> COc1cc(Oc2ccccc2)ccc1N
  3 | 3
> COC(=O)[C@@H]1C[C@@H](OCc2ccccc2)CN1C(=O)c1ccc(-c2cc(C(F)(F)F)nn2C)s1
  3 | 5
> Cc1cccc(-c2nc3ccccn3c2Nc2c(C)cccc2C)c1
  -3&-5 | -2&1
> O=S(=O)(c1cccc(F)c1)N1CCC(CCc2ccc3c(c2)OCO3)CC1
  14 | 7
> CCC(C)Sc1nc2c(c(=O)[nH]c(=O)n2C)n1Cc1ccccc1Cl (stereo not drawn)
  -6 | 3
> O=C(NC[C@@H]1CCCO1)C1CC=CCC1C(=O)N1CCc2ccccc2C1 (stereo partly drawn)
  -6 | -14
> O=C(CN1CCc2sccc2C1C1CC1)N1CCN(c2ccccn2)CC1 (stereo not drawn)
  0 | -1
> CCOCCOC(=O)C1=C(C)NC2=C(C(=O)CC(c3ccc(OC)cc3)C2)C1c1ccccc1F (stereo not drawn)
  8 | 10
> Cc1cccc(NC(=O)Cn2c(-c3nnc(C(C)C)o3)cc3ccccc32)c1
  -4 | -5
> O=C1CNC(=S)N1C1CCCCC1
  -2 | -4
> O=S(=O)(c1ccccc1)c1ccc(Br)cc1
  -3 | -5
> Cc1nn2c(-n3ccnc3)c3c(nc2c1-c1ccccc1)CCC3
  4 | 5
> Cn1ccnc1CN(CCn1c(=O)oc2ccccc21)C1CC1
  25 | 20
> CCOc1ccc(-c2csc(N/N=C\c3ccc(OC)c(OC)c3)n2)cc1
  0 | 3
> O=C(NCCCn1nc(-c2ccco2)ccc1=O)c1ccc(C(F)(F)F)cc1
  1 | -2
> COc1cccc(-c2nc(C=Nc3cccc(F)c3)c(O)o2)c1
  -6 | -7
> C=CCN(Cc1nc2sc3c(c2c(=O)[nH]1)CCCC3)CC(O)CCC (stereo not drawn)
  -2 | 3
> Cc1ccc(C)c(S(=O)(=O)Nc2ccc(NS(=O)(=O)c3ccc(F)c(F)c3)cc2)c1
  -4 | -3
> CC(=O)Oc1ccc2cc(-c3nnc(-c4ccccc4)o3)c(=O)oc2c1
  41 | 29
> CC(=O)Nc1ccc(S(=O)(=O)NCc2nnnn2-c2ccc(C)c(C)c2)cc1
  2 | 0
> FC(F)(F)c1nnc2ccc(Oc3cccnc3)nn12
  -1 | -2
> COc1ccccc1C(=O)NCCC(=O)NC1CC(=O)N(C)C1c1ccc(F)cc1 (stereo not drawn)
  3 | -1
> O=C(Nc1ccccc1Cl)c1cc(C2CCCN(C(=O)c3cccc(O)c3)C2)on1 (stereo not drawn)
  0 | -3
> Cc1ccc(N2CCCn3c2nc2c3c(=O)n(CC(=O)OCc3ccccc3)c(=O)n2C)cc1C
  9 | 6
> N#CCOc1cccc(NC(=O)N2CCc3sccc3C2)c1
  2 | -1
> O=C(NC1CCCc2ccccc21)C1CSCCS1 (stereo not drawn)
  -5 | -5
> Cn1c(=NN=C2CC3C=CCC23)sc2ccccc21 (stereo not drawn)
  -1 | 4
> CCCNC(=O)C(C)N1CC2CN3CCCCC3C2C1 (stereo not drawn)
  -2 | -4
> CSc1cccc(NC(=O)C23CCC(=O)N2c2ccccc2C(=O)N3Cc2ccccc2)c1 (stereo not drawn)
  2 | -1
> COC(=O)c1ccc(NC(=O)CSc2cn(CC(=O)N3CCCCC3)c3ccccc23)cc1
  -7 | -11

Molecule	NPYLR7 ag	NPYLR7 ag max-min
COc1cccc(COC(C)C(=O)Nc2cccc3cn[nH]c23)c1 (stereo not drawn)	2	-1
CN1CCCc2cc(C(CN)N3CCOCC3)ccc21 (stereo not drawn)	7	6
CCCc1nc(N2CCN(C(=O)Nc3ccccc3F)CC2)c2c(C)nn(-c3ccccc3)c2n1	10	12
O=C(Cn1cc(C(F)(F)F)cc(Cl)c1=O)c1ccc2[nH]c(=O)[nH]c2c1	2	7
O=C(NCCNc1cc(-n2cccn2)ncn1)Nc1ccccc1F	-5	-11
Cc1ccn(-c2ccc(N3CCCC(CCO)C3)nn2)n1 (stereo not drawn)	-22	-19
COc1cccc(N2CCN(S(=O)(=O)NCc3ccccc3)C(C)C2=O)c1 (stereo not drawn)	8	2
O=C1CCCN1C1CCCN(Cc2ccccc2-c2ccccc2)C1 (stereo not drawn)	5	1
O=C(COc1ccccc1-c1ccccc1)NNC(=O)c1ccc[nH]c1=O	1	2
CC(=O)N1C=C(C)C2C=C([N+](=O)[O-])C=C(OCc3ccccc3)C21 (stereo not drawn)	2	6

Molecule	NPYLR7 ag	NPYLR7 ag max-min
C=CCN(c1ccccc1C(=O)O)S(=O)(=O)c1ccc(C)cc1	3	3
Cn1c(COc2ccccc2Cl)nnc1SCC(=O)c1ccc(NC(=O)C(C)(C)C)cc1	4	7
CCCS(=O)(=O)c1ccccc1C(=O)N(C)C1CCCCCCC1	-1	-8
CCN(CC)Cc1cnc2c(C(=O)NCC(F)F)cnn2c1	-4	-7
Cc1nc(C)c(Cc2ccccc2F)c(N2CCN(C(=O)c3cccc(Cl)c3)CC2)n1	0	8
COC[C@H]1C[C@H]2C[C@@H](Oc3ccccn3)[C@H](N(C)CCN(C)C)[C@]2(O)CO1	10	25
CCc1cccc2c(C(CC(=O)NCCCOC)c3ccc(Cl)cc3)c[nH]c12 (stereo not drawn)	24	35
O=C1OCC=C1OC(=O)c1ccccc1F	-2	-4
CCn1c(C(C)N(CCN(C)C)C(=O)NC2CCCCC2)nc2ccccc2c1=O (stereo not drawn)	14	21
O=C(Cn1cnc2ccccc2c1=O)Nc1nc2c(s1)CCCCC2	-5	-5

Filtered by structure: those above with two or more sulfur atoms (three)
Molecule	NPYLR7 ag	NPYLR7 ag max-min
COc1ccc(-n2c(CSc3ncccn3)nnc2SCC(=O)NO)cc1	12	4
Cc1ccc(C)c(S(=O)(=O)Nc2ccc(NS(=O)(=O)c3ccc(F)c(F)c3)cc2)c1	-4	-3
O=C(NC1CCCc2ccccc21)C1CSCCS1 (stereo not drawn)	-5	-5

The list goes on:
Molecule	NPYLR7 ag	NPYLR7 ag max-min
COCc1c(Br)c(C)nc(OCC(=O)N/N=C\c2ccccc2OC)c1C#N	-3	-9
CCOC(=O)c1ccc(NC(=O)CSc2ccc(-c3sc(-c4cccnc4)nc3C)nn2)cc1	4	4
N#Cc1cc(C(=O)c2cc(Br)ccc2O)cn(-c2ccccc2Cl)c1=O	42	38
N#Cc1ccc(-n2ncc3c2CCN(C(=O)c2cccc4[nH]ccc24)C3)cc1	-1	15
O=C(Nc1ccccc1C(F)(F)F)c1cnn2c(C(F)(F)F)cc(-c3ccccc3)nc12	-5	-10
FC(F)(F)c1cnc(Sc2nnc3ccccn23)c(Cl)c1	2	2
FC(F)(F)C1CCN(Cc2cc3n(n2)CCNC3)CC1	5	4
Cc1cnc2n(c1=O)C(CC(=O)NCc1ccco1)CS2 (stereo not drawn)	0	-3
CC(C)c1nc(SCc2ccc(C(N)=O)cc2)n[nH]1	-3	-4
Cc1c(Cl)c([N+](=O)[O-])nn1CC(=O)Nc1sc2c(c1C(N)=O)CCC(C)C2 (stereo not drawn)	-3	-8

Molecule	NPYLR7 ag	NPYLR7 ag max-min
O=C(CN1CCCC1=O)Nc1cccc(OCCOc2ccccc2)c1	3	2
Cc1ncsc1CCS(=O)(=O)Cc1cccc2ccccc12	1	-1
CC(=O)N1CCN(C(=O)c2nn(-c3ccc(C(C)C)cc3)c(=O)n(Cc3ccccc3C)c2=O)CC1	1	8
COCCNC(=O)c1cc2nc(-c3ccccc3)cc(C)n2n1	-19	-24
O=C(NN1CCN(Cc2ccccc2)CC1)c1ccc(Cl)cc1	-21	-22
O=c1cnc2ccccc2n1CCOc1ccc(Br)cc1	1	1
CSC1CCC(NC(=O)NC2CCN(c3cccc(C)n3)CC2)C1 (stereo not drawn)	-10	-16
COCCn1c(C)cc(O)c(C(c2ccc(SC)cc2)N2CCN(c3ccccc3F)CC2)c1=O (stereo not drawn)	11	5
Cc1nc2c3c(ncn2n1)CCN(C(=O)c1cccc(SC(F)F)c1)C3	-2	-4
O=c1c(N=Nc2cccc(Cl)c2)c(-c2ccc([N+](=O)[O-])cc2)[nH]n1-c1nc(-c2ccccc2)cs1	-4	5

Complete entries, quoted from the list.
Record of O=c1cnc2ccccc2n1CCOc1ccc(Br)cc1 = NPYLR7 ag = 1; NPYLR7 ag max-min = 1
Record of COCCNC(=O)c1cc2nc(-c3ccccc3)cc(C)n2n1 = NPYLR7 ag = -19; NPYLR7 ag max-min = -24

Following part:
Molecule	NPYLR7 ag	NPYLR7 ag max-min
O=c1nc(SCc2ccc(Cl)cc2)nc2ccccn12	3	2
c1ccc(Oc2ccc3c(-c4cccnc4)noc3n2)cc1	0	-2
CCOC(=O)Cc1nnc(Nc2cccc(C)c2)c2ccccc12	-17	-23
COc1cccc(C2C(C(=O)c3ccco3)=C(O)C(=O)N2CCN2CCOCC2)c1OC (stereo not drawn)	10	10
CCN(CC)Cc1cnc2c(C(=O)N3Cc4ccccc4C3)cnn2c1	11	8
CN(Cc1n[nH]c2c1CCCCC2)S(=O)(=O)NCc1ccccc1	8	6
CCCCCCCOc1ccc(-c2noc(-c3ccc(CC)cc3)n2)cc1	0	-5
COc1ccc2cc(-c3nc4ccccc4[nH]3)c(=Nc3cccc(C#N)c3)oc2c1	1	-4
COC(=O)C1=C(O)/C(=C\c2ccc(O)c([N+](=O)[O-])c2)SC1=Nc1ccc(Cl)cc1	-6	2
O=C(O)c1[nH]ncc1CN1CCCC1c1ccccn1 (stereo not drawn)	-4	-5

Molecule	NPYLR7 ag	NPYLR7 ag max-min
Cc1nc2c(C)cccn2c(=O)c1NC(=O)c1cc(Cl)ccc1Cl	5	2
O=C1CC(c2ccccc2)CC2=Nc3ccccc3NC(c3cccs3)C12 (stereo not drawn)	0	-2
CCN(CC)C(=O)Oc1ccc2c(ccn2Cc2ccc(I)cc2)c1-c1cc(C)cc(C)c1	11	7
COc1ccc2cc1Oc1ccc(cc1)C[C@H]1c3c(cc4c(c3Oc3cc5c(cc3OC)CCN(C)[C@@H]5C2)OCO4)CCN1C	-7	-13
Cc1ccc(CN(CCc2c[nH]c3ccccc23)C(=O)CN(C(=O)c2cccc([N+](=O)[O-])c2)C2CC2)cc1	7	17
COc1ccc(C(=O)N2CCN(c3cc(Cl)nc(SCC(=O)NCc4ccncc4)n3)CC2C)cc1 (stereo not drawn)	15	11
CCOC(=O)C1CCCN(CC(=O)N2N=C(c3cccc(C)c3)CC2c2cccc(OC)c2)C1 (stereo not drawn)	25	19

Screening results as filed in PubChem.

Only part of the results is shown; count on the stated rates, not on these rows.
